HCMV NEC inh = inhibitors of HCMV UL50-UL53 nuclear egress complex interaction; AID 1918969; HTRF UL50-UL53 interaction, normalized percent inhibition; inhibition, % (test concentration not listed); actives 0.15% (n = 190,000);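 active = both replicates at 50% or more, plus weaker picks with an unusually low signal ratio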;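 note: stock transfer was 100 nL into about 20 µL; 0% = negative control wells and 100% = wells with untagged competitor protein; inactives centre near -12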
GIV Gai3 FP = GIV-Galpha-i interaction inhibition; P08753; Galpha-i3/FITC-GIV peptide fluorescence polarization, 90 min; active compounds read low; scaled: aluminum fluoride 0%, vehicle 100%; percent of control (FP), % (concentration not given with the values); actives 0.42% (n = 210,000);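 active = replicate mean at 85% of control or lower, very high polarization wells dropped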;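 note: wells of about 15 µL received 100 nL stock; the first replicate is given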
Target sequence (P08753 whole entry, looked up): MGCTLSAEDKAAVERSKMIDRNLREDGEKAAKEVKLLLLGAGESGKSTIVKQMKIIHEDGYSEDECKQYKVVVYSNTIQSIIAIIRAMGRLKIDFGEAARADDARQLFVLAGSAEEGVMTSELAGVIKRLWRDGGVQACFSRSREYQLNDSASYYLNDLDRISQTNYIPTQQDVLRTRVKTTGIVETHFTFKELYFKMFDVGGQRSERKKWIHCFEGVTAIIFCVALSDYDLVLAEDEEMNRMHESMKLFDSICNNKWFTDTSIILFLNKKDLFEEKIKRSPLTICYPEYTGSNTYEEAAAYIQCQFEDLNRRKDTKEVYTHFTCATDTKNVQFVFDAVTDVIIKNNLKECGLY
Sa growth 42C = inhibitors of Staphylococcus aureus growth at 42 °C. S. aureus RN4220 growth, OD600, 20 h; active compounds read low. actives 0.53% (n = 170,000). relative growth, % (concentration not given with the values);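 active = growth at 42 °C up to 50% and 20 or more points under that at 30 °C, or under 10% at both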;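 note: 300 nL library stock went into each well; scaled to the means of positive and negative controls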
Sa growth 42C second temp = also measured in Sa growth 42C; calls as there; relative growth, %; measured here: growth at 30 °C;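 optical density after 20 h as mean of two plates; 100% = untreated growth and lower means inhibition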
Active calls of the source: *; nt = no result given; & = joins results of further samples.

SMILES	HCMV NEC inh	GIV Gai3 FP	Sa growth 42C	Sa growth 42C second temp
Cc1ccc(Cl)cc1NC(=O)c1sc(-n2nc(C)c(Cc3ccc4c(c3)OCO4)c2C)nc1C	8	104	111	96
Cc1ccc(C(=O)NC(C)c2ccc3c(c2)OCCO3)cc1-n1nnc2cccnc21 (stereo unspecified)	-33	105	nt	nt
COc1ccccc1NC(=O)c1ccc(-n2cccn2)nc1	-3	104	nt	nt
CCOC(=O)c1ccc(Nc2nc3nonc3nc2Nc2cccc(C)c2C)cc1	-18&-9	103&100	-1.0*	-1.1*
O=C(CCn1c(=O)c2ccccc2n(CC(=O)NCCC2=CCCCC2)c1=O)NCc1ccc2c(c1)OCO2	-21	103	102	95
CCOc1cc2c(cc1C(=O)O)OC(C)C2 (stereo unspecified)	-31	nt	99	88
O=C(c1cnn(-c2ccccc2)c1)c1ccccc1O	-6	nt	91	84
Cc1ccc(NC(=O)Cn2c(=O)n(CCCCC(=O)NCc3ccccc3Cl)c(=O)c3ccccc32)cc1C	-10	100	103	93
COc1cc(Cl)c(NC(=O)C2CCN(S(=O)(=O)c3c(C)noc3/C=C/c3ccccc3F)CC2)c(OC)c1	nt	103	97	92
COc1ccc(Cc2c(O)nc(SC)n(-c3ccccc3)c2=O)cc1	4	100	100	101
CC1(C)CC(=O)C2=C(C1)NC(=O)C(C#N)C2c1ccccc1 (stereo unspecified)	10	99	65	94
O=C(NCc1ccco1)c1c[nH]n2c(=O)cc(C3CCNCC3)nc12	6	95	112	90
O=C1NC(=S)N/C1=C\c1ccco1	nt	115	95	89
CC(C)(C)C(=O)COC(=O)C1CCN(S(=O)(=O)c2cccs2)CC1	-29	nt	96	93
COC(=O)c1ccc(S(=O)(=O)N2CCc3ccccc32)n1C	nt	105	90	96
O=C(COc1ccc2c(c1)C(=O)CC1(CCCCC1)O2)NCc1cccnc1	nt	106	129	88
O=C(CN1CCN(Cc2ccc(F)cc2Cl)C1=O)NCCc1ccc(Cl)cc1	-10	106	107	84
O=c1[nH]nc2n1CCCC2	-2	100	104	91
COc1ccc(Cl)cc1NC(=O)Cn1nc(Cc2ccncc2)c2ccccc2c1=O	-11	109	106	60
CC1CCCN(C(=O)C23CCC(C)(C(=O)C2)C3(C)C)C1 (stereo unspecified)	-12	nt	112	92

Reformatted bar-delimited: part of the list above.
SMILES | HCMV NEC inh | GIV Gai3 FP | Sa growth 42C | Sa growth 42C second temp
CC(C)(C)C(=O)COC(=O)C1CCN(S(=O)(=O)c2cccs2)CC1 | -29 | nt | 96 | 93
COC(=O)c1ccc(S(=O)(=O)N2CCc3ccccc32)n1C | nt | 105 | 90 | 96
O=C(COc1ccc2c(c1)C(=O)CC1(CCCCC1)O2)NCc1cccnc1 | nt | 106 | 129 | 88
O=C(CN1CCN(Cc2ccc(F)cc2Cl)C1=O)NCCc1ccc(Cl)cc1 | -10 | 106 | 107 | 84
O=c1[nH]nc2n1CCCC2 | -2 | 100 | 104 | 91
COc1ccc(Cl)cc1NC(=O)Cn1nc(Cc2ccncc2)c2ccccc2c1=O | -11 | 109 | 106 | 60

Next structures
SMILES	HCMV NEC inh	GIV Gai3 FP	Sa growth 42C	Sa growth 42C second temp
O=C(NCc1ccc(Cl)cc1)c1ccc(NC(=O)N2CC3CCCN3c3ccccc32)cc1 (stereo unspecified)	0&-6	107&108	110	93
CC(C)COc1ccc(/C=C2/SC(=Nc3ccccc3)N(N(C)C)C2=O)cc1	2	nt	82	90
CCc1nn(CC(=O)N2CC(C)CC(C)C2)c(=O)c2cc3sccc3n12 (stereo unspecified)	-3	100	109	93
CC(C)c1ccc(NC(=O)c2ccc3c(O)c(S(=O)(=O)c4ccccc4)c(=O)[nH]c3c2)cc1	nt	99	93	78
CCc1ccc(NC(=O)c2ccc3nc(C(C)C)oc3c2)cc1	nt	101	79	90
COc1cc(CCNc2ccc3nnc(-c4ccccc4)n3n2)cc(OC)c1OC	nt	104	89	86
NC(N)=NN=C1CCCCC1	-15	114	106	97
Cc1ccc(Cl)cc1N1CCN(C(=O)c2cn(C)c3ccc(S(=O)(=O)N4CCCCC4)cc3c2=O)CC1	-19	103	93	98
COc1ccc2c(c1OC)C(=O)NC(C)=C(C(=O)OC(C)(C)C)C2O (stereo unspecified)	-5	95	90	78
CC1=NN(C(=O)c2cccs2)C(O)(C(F)(F)F)C1 (stereo unspecified)	-29	106	93	75

4 of these compounds, set out differently.
The line under a structure holds: HCMV NEC inh	GIV Gai3 FP	Sa growth 42C	Sa growth 42C second temp
COc1ccc(Cl)cc1NC(=O)Cn1nc(Cc2ccncc2)c2ccccc2c1=O
→ -11	109	106	60
CC1CCCN(C(=O)C23CCC(C)(C(=O)C2)C3(C)C)C1 (stereo unspecified)
→ -12	nt	112	92
O=C(NCc1ccc(Cl)cc1)c1ccc(NC(=O)N2CC3CCCN3c3ccccc32)cc1 (stereo unspecified)
→ 0&-6	107&108	110	93
CC(C)COc1ccc(/C=C2/SC(=Nc3ccccc3)N(N(C)C)C2=O)cc1
→ 2	nt	82	90

The list continues:
SMILES	HCMV NEC inh	GIV Gai3 FP	Sa growth 42C	Sa growth 42C second temp
Cc1cc(C)cc(NC(=O)Cn2nnc(C(=O)NCc3ccccc3Cl)c2N)c1	-17	107	104	92
CC1=C/C(=N\NS(=O)(=O)c2ccc(C)cc2)CC1	-13	nt	99	86
CN(CC(=O)NC(c1ccccc1)c1ccccc1)S(=O)(=O)c1ccc2c(c1)CCC(=O)N2	2	105	94	94
COc1ccc(I)c(OC)c1	-8	98	97	101
O=C1C2C3C=CC(C3)C2C(=O)N1c1nc2ccccc2s1 (stereo unspecified)	-35	100	91	86
CCCOc1ccc(C2c3c(oc4ccc(Cl)cc4c3=O)C(=O)N2CCN(CC)CC)cc1OC (stereo unspecified)	-36	100	108	87
CC1CCN(C(=O)Cn2cc(SCC(=O)N3CCc4ccccc43)c3ccccc32)CC1	-17	102&105	101	91
Cc1nc2ccn(Cc3cccnc3)c(=O)c2cc1C(=O)NCCC(C)C	-35	98	100	82
CC(C)N(C(=O)CSc1nc2ccc(Cl)cc2[nH]1)C(C)C	7	nt	103	115
COc1ccc(NC(=O)CSc2c3c(nc4ccccc24)CCC3)cc1Cl	21	105	91	96
Cc1ccc(CN2C(=O)CC(c3ccc(Cl)cc3)c3c(C)nn(-c4nc(C)cc(C)n4)c32)cc1 (stereo unspecified)	-22	96	95	70
CN(C(=O)CSc1nnc(-c2ccncc2)o1)c1ccc(F)cc1	-10	100	nt	nt
CCOC(=O)c1ccc(CN(Cc2ccccc2)S(=O)(=O)c2ccc(Cl)cc2)cc1	nt	107	103	92
CCCN(CCC)S(=O)(=O)c1ccc(C)cc1	-4	97	93	109
O=c1cnc(Nc2ccccc2Cl)c2ccccc2n1	-12	nt	38	14
CCOC(=O)c1[nH]c2ccccc2c1NC(=O)c1cc(OC)cc(OC)c1	3	103	100	92
COc1ccccc1NC(=O)C1C2C=CC3(CN(Cc4cccnc4)C(=O)C13)O2 (stereo unspecified)	-28	107	77	87
CCCCOC(=O)c1ccc(NC(=O)C2=Cc3cc(C)ccc3OC=C2)cc1	5	104	nt	nt
CCc1nnc2c(N(C)c3cccc(C)c3)nc3ccccc3n12	-32	102	96	79
COc1cc(C2NC(C(=O)O)CS2)ccc1OCc1ccc(C)cc1 (stereo unspecified)	15	103	nt	nt
COC(=O)C(C)n1cnc2sc3c(c2c1=O)CCCC3 (stereo unspecified)	-24	101	86	91
COc1ccc2c(C)nc(/N=C(\N)NC(C)=O)nc2c1	-27	nt	82	13
O=C(CSC1=NS(=O)(=O)c2ccccc2N1)c1ccccc1	-4	104	98	98
O=C1c2ccccc2S(=O)(=O)N1CC(O)Cn1ccc2ccccc21 (stereo unspecified)	0	102	111	90
COc1ccc(OC)c(C2NC(=O)NC(C)=C2C(=O)OCc2ccc3c(c2)OCO3)c1 (stereo unspecified)	1	100	nt	nt
CC(C)=NNc1c(Cl)cc(Cl)cc1Cl	16	108	97	88
O=S(=O)(NCC(c1ccco1)S(=O)(=O)c1cccs1)c1ccccc1 (stereo unspecified)	nt	94	137	87
Cc1ccc(S(=O)(=O)NC(=O)Nc2scc(C)c2C(=O)c2ccccc2)cc1	-21	102	79	100
CCOc1ccc(C(C)(C)C(=O)NN2C(=O)/C(=C/c3ccccn3)N=C2c2ccccc2)cc1	-21	nt	115	99
CCN1C(=O)c2c(C)nc3ccccc3c2C1=O	-88	106	101	92
CCCOc1ccc(C2c3c(-c4ccccc4O)n[nH]c3C(=O)N2Cc2ccncc2)cc1OCC (stereo unspecified)	-16	103	110	92
O=C(NC1CC1)C1COc2ccccc2C1 (stereo unspecified)	-24	103	nt	nt
COc1ccc(-n2c(=O)c3c4c(sc3n(Cc3ccc(F)cc3)c2=O)CN(C(C)=O)CC4)c(OC)c1	22	106	95	98
CC1CCc2sc(C(=O)NCCCn3ccnc3)cc2C1 (stereo unspecified)	7	nt	96	92
O=C(Nc1nc(-c2cccnc2)cs1)C1CCCC1	-14	nt	93	95
COC(=O)c1cc(S(=O)(=O)N2CCCC2C(=O)Nc2ccc3c(c2)OCO3)cn1C (stereo unspecified)	-17	107	nt	nt
Cc1ccc(-c2cnc(C3CC3)o2)cc1S(=O)(=O)Nc1cccc(C#N)c1	nt	105	126	105
C(=Nc1ccc(-c2nnc3n2CCCCC3)cc1)c1ccsc1	-7	nt	109	92
Cc1ccc2cccc(NC(=O)c3ccc(-c4cc(Cl)ccc4Cl)o3)c2n1	-6	104	106	93
Nc1cccnc1NCc1ccc(F)cc1	-38	120	nt	nt

The final 3 compounds of the section before open the next one.
SMILES	HCMV NEC inh	GIV Gai3 FP	Sa growth 42C	Sa growth 42C second temp
C(=Nc1ccc(-c2nnc3n2CCCCC3)cc1)c1ccsc1	-7	nt	109	92
Cc1ccc2cccc(NC(=O)c3ccc(-c4cc(Cl)ccc4Cl)o3)c2n1	-6	104	106	93
Nc1cccnc1NCc1ccc(F)cc1	-38	120	nt	nt
FC(F)(F)c1cccc(NC(=S)Nc2cc(-c3cccs3)[nH]n2)c1	-4	103	61	55
COc1ccc2[nH]c(C(=O)NCc3cccc(Br)c3)c(N3CCCC3=O)c2c1	-16	103	nt	nt
N#Cc1ccccc1S(=O)(=O)N1CCN(Cc2c(O)ccc3ccccc23)CC1	-5	nt	104	98
Cc1cc(NC(=O)CN2C(=O)CSc3ccc(S(=O)(=O)N(C)C)cc32)ccc1Br	nt	102	67	46
CN(C(=O)CCc1nc(-c2nn(-c3ccc(F)cc3)c(=O)n(C)c2=O)no1)c1ccc(F)cc1	-78	102	nt	nt
O=C1CC(c2ccccc2)CC(O)=C1C=Nc1ccc(Cl)cc1 (stereo unspecified)	-9	98	107	80
CC(Oc1ccc(Br)cc1)C(N)=O (stereo unspecified)	-2	108	102	98
CCOc1ncccc1C(=O)NCc1ccc(F)cc1	-17	nt	89	89
Cc1cccc(C)c1NC(=O)Cn1c(=O)n(CCCC(=O)NCc2ccco2)c(=O)c2sccc21	-15	95	103	83
O=C(NC1CCCC1)c1cnn2c3c(cnc12)CCCC3	-12	104	nt	nt
Cc1nc2sc(C(=O)N(Cc3ccco3)Cc3cccs3)c(C)c2c(=O)[nH]1	20	nt	100	92
CCc1ccc(NC(=O)CCCn2c(=O)c3cccn3c3cccnc32)cc1	-10	105	93	98
CN(C)CCNS(=O)(=O)c1c[nH]c(-c2nnc(-c3ccc(F)cc3)o2)c1	-14	102	nt	nt
Cc1c(Cl)cccc1NC(=O)CSc1nc(=O)n(CCN2CCOCC2)c2c1CCCC2	-21	99	94	80
Cc1ccc(CSCC2COC(c3cccs3)=N2)cc1 (stereo unspecified)	nt	103	87	81
CCOC(=O)C1CCN(C(=O)c2ccccc2NC(=O)c2cccc(F)c2)CC1	2	nt	99	90
COc1ccc(NC(=O)CC(c2ccco2)c2ccccc2OC)cc1 (stereo unspecified)	-21	102	106	90
O=C(COC(=O)c1ccc(Br)o1)Nc1cc(C(F)(F)F)ccc1Cl	-45	nt	136	85
O=C1NC(c2ccc(Br)cc2)Oc2ccccc21 (stereo unspecified)	nt	107	105	81
O=S(=O)(NCC(c1ccco1)S(=O)(=O)c1ccccc1)c1cc(F)ccc1F (stereo unspecified)	nt	98	126	91
COc1ccc(-c2nc(SCC(=O)N3CCCc4ccccc43)[nH]c(=O)c2C#N)cc1	-11	nt	102	97
O=C(CSc1nccn2nc(-c3ccc(Cl)cc3)cc12)Nc1ccc(Br)cc1	3	99	nt	nt
Cc1cc(C)cc(C(=O)NCCc2sc(-c3ccc(F)cc3)nc2C)c1	nt	100	89	91
O=C(CCCc1nnc2n3nc(-c4ccccc4)nc3c3ccccc3n12)NCc1ccco1	-25	97	87	88
Cc1nc2ccc(NC(=O)NCCCO)cc2s1	10	105	101	81
COC(=O)CNc1nc(Cl)nc(N2CCC(C)CC2)n1	-8	nt	125	89
Fc1ccc(NC(=S)NCCCN2CCCCCC2)cc1Cl	nt	108	110	87
COc1ccc(CNC(=O)c2ccc3c(c2)N(Cc2cccc(Cl)c2)C(=O)c2ccccc2S3)c(OC)c1	nt	102	139	107
Cc1ccc(OCc2nn3c(-c4ccoc4C)nnc3s2)cc1C	-8	106	nt	nt
COc1ccc2oc(C(=O)OC(C)C(=O)N3C(C)CCCC3C)c(C)c2c1 (stereo unspecified)	-17	nt	82	89
c1cnc(Sc2ccc3ccccc3c2)nc1	-32	nt	98	97
CCOC(=O)C1=C(N)OC2=C(C(=O)CCC2)C1c1ccccc1F (stereo unspecified)	-17	100	nt	nt
COc1ccc2[nH]cc(CCNC(=O)Cn3cnc4ccccc4c3=O)c2c1	-10	96	98	87
CCCOC(=O)c1ccc(NC=O)cc1	7	105	97	97

Screening data as filed in PubChem.
